Mtb hypoxia inh = inhibitors of hypoxia-regulated fluorescent reporter in Mycobacterium tuberculosis; M. tuberculosis hypoxia-regulated fluorescent reporter, fluorescence; fluorescence inhibition, % (concentration not given with the values); actives 0.1% (n = 300,000); AID 1159583;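 active means 35 to 45% if threefold the growth effect, above 45% if 1.5-fold the growth effect; inactive means the rest, general growth blockers included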;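 further: wells of about 50 µL received 100 nL stock; 0% = vehicle wells and 100% = reference inhibitor wells; whole bacteria with a GFP reporter of the hypoxia response; strong numbers were not always called active; many hits fall short of the cut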
Autofluor counter = compound fluorescence in toxin protease inhibitor counterscreen. compound autofluorescence counterscreen, microsphere flow cytometry; active compounds read high. fluorescence intensity (concentration not given with the values). actives 3.1% (n = 360,000). AID 624483;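 active means at least 3 SD above the mean of all compounds, about 16000 in these data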;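 further: 100 nL of 1 mM stock went into each well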
BJeLR viability = kills HRASV12-expressing BJeLR cells | BJeLR (HRASV12) viability, CellTiter-Glo ATP luminescence, 48 h; reference of the scale not given here | inhibition, % (no concentration beside the values) | actives 0.17% (n = 300,000);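 active means replicate mean above 50%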;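 further: 50 nL library stock added to about 25 µL; numbers are from one replicate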
Sa RN4220 lethal = kills Staphylococcus aureus RN4220. inhibition, % (no concentration beside the values). AID 1259311. S. aureus RN4220 growth, OD600, 16 h. actives 0.33% (n = 330,000);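 active means z-score of -3 or lower and OD600 up to 0.18 on both plates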;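 further: plate controls were untreated cells for no effect and reference antibiotic for full effect; stock transfer was 100 nL into about 80 µL; one replicate is shown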
ugtP null kill = kills S. aureus RN4220 lacking UgtP | S. aureus RN4220 ugtP deletion, OD600 growth, 16 h; some inactives read as strong as hits | actives 0.54% (n = 330,000) | growth inhibition, % (concentration not given with the values);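 active means z-score under -3 and OD600 up to 0.15 on both plates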;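 further: plate controls were untreated wells for no effect and antibiotic for full effect; wells of about 80 µL received 100 nL stock; the first replicate is given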
PrP 5UTR inh = suppresses PrP 5' UTR mRNA reporter expression; inhibition, % (test concentration not listed); actives 0.35% (n = 340,000); cell-based PrP 5' UTR mRNA reporter, plate reader;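 active means every replicate at 50% or more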;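 further: 0 = median of the neutral control wells; tested in H4 reporter cells; numbers are from one replicate; inactives centre near -14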
Mtb hypoxia inh growth = recorded beside Mtb hypoxia inh, whose call it bears; growth inhibition, %; measured here: M. tuberculosis growth (absorbance);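 0% = vehicle and 100% = reference antibiotic; read after six days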
* hit, by the source's call; x = no result given.

SMILES	Mtb hypoxia inh	Mtb hypoxia inh growth	Autofluor counter	BJeLR viability	Sa RN4220 lethal	ugtP null kill	PrP 5UTR inh
CCc1ccc(N(C(=O)c2csnn2)C(C(=O)NCc2ccccc2)c2ccco2)cc1 (stereo not given)	2	8	6651	1	3.2	2	-7
CC(NC(=O)c1ccccc1Cl)C(=O)O (stereo not given)	12	1	4938	4	3.5	9	-7
O=c1oc(-c2ccccc2NS(=O)(=O)c2ccc(Cl)cc2)nc2ccccc12	10	2	4580	1	1.9	-13	-13
CCOc1cccc(C(=O)NC(=S)Nc2ccc(Cl)cc2C(=O)O)c1	0	9	4323	8	18	45	-15
O=C(COC(=O)CN1C(=O)C2CCCCC2C1=O)NCc1ccc(Cl)cc1Cl (stereo not given)	2	2	4227	x	2.7	0	-28
O=[N+]([O-])c1cc2c(cc1CN1CCN(CCOCCO)CC1)OCO2	6	-5	3263	-14	0.4	0	2
COc1cc(NC(=S)Nc2ccccn2)cc(OC)c1OC	5	10	2634	-9	-0.3	-7	-9
COc1ccc(C(c2c(C)n(C)n(-c3ccccc3)c2=O)c2c(C)n(C)n(-c3ccccc3)c2=O)cc1OC	-7	-12	3240	-8	0.6	2	-22
O=C(COC(=O)c1nc(Cl)ccc1Cl)Nc1ccccc1OC(F)F	11	3	3422	-11	3.0	3	-4
CN(C)C(CNC(=O)c1ccc(C(=O)c2ccccc2)cc1)c1ccccc1 (stereo not given)	-3	-9	2911	8	-6.4	2	-11
CCS(=O)(=O)c1ccc(O)c(NC(=O)c2cc(OC)c(OC)c(OC)c2)c1	3	3	10068	-1	3.3	0	-22
CN(C)c1ccc(C2NCCS2)cc1 (stereo not given)	4	12	22912*	-8	4.4	-1	-31
O=C(c1ccccc1)c1ccc(OCC(O)CN2CCCCC2)cc1 (stereo not given)	x	x	4223	16	-0.4	4	-17
FC(F)(F)c1ccccc1N/N=C/c1cccnc1	x	x	3070	1	x	x	-19
CC1Cc2ccccc2N1C(=O)Cn1cc([N+](=O)[O-])cn1 (stereo not given)	x	x	4648	2	-2.9	3	-30
COc1ccc(-c2nc(CSCC(=O)NC3CCCc4ccccc43)c(C)o2)cc1OC (stereo not given)	6	11	3786	-16	5.3	-3	2
CC(=O)c1sc(-c2ccc(Cl)cc2)nc1C	14	2	4627	5	17	-7	-24
Clc1ccc(-c2cnc3n2CCCCC3)cc1	15	12	3348	9	0.5	3	-7
S=c1[nH]nc(Cc2sc(-c3ccccc3)nc2-c2ccccc2)o1	x	x	4705	1	30	9	1
COC(=O)Cn1cc(C=C2C(=O)NC(=O)NC2=O)c2ccccc21	x	x	3011	-1	x	x	-14

The list continues:
SMILES	Mtb hypoxia inh	Mtb hypoxia inh growth	Autofluor counter	BJeLR viability	Sa RN4220 lethal	ugtP null kill	PrP 5UTR inh
Cc1ccc(N=C2C(=S)N(c3ccc(C)cc3)C(=N)N2/N=C/c2ccc(Cl)cc2)cc1	x	x	9225	-7	x	x	-58
O=C(c1ccc[nH]1)N1O[C@@H]2C=C[C@H]1C2	7	3	3414	x	3.9	4	-2
Cc1cc(C)cc(OCC(=O)N(C)CC(=O)Nc2ccc(N3CCOCC3)cc2)c1	2	7	5417	x	4.9	5	-2
Fc1ccc(NC(=S)NCc2ccccn2)cc1	12	2	3465	7	2.8	0	-5
CC(C)(C)C(=O)CSc1ncnc2c1cnn2Cc1ccccc1	9	0	3936	-5	0.8	15	-16
O=C(CCn1nnc2ccccc21)Nc1nnc(Cc2ccccc2)s1	3	-3	10179	3	8.2	9	-13
O=C(c1ccc(C(F)(F)F)cc1)C1CCCN(C(=O)CN2CCCC2=O)C1 (stereo not given)	2	-1	3107	2	5.4	1	-30
CN(CCCC1CCCC1)C(=O)c1cc(COc2c(F)cccc2F)on1	3	2	6135	5	7.2	5	-12
O=C(Cc1ccc([N+](=O)[O-])cc1)NCc1ccccc1Cl	13	5	2416	-1	5.4	13	-6
O=C(COC(=O)c1cc(S(=O)(=O)N2CCOCC2)ccc1F)Nc1ccc2c(c1)OCO2	5	2	4259	x	6.6	2	-12
O=C1CCCN1C(=O)CSc1ccc2ccccc2n1	11	7	3707	x	3.8	3	-21
COc1cccc(C(=O)NNC(=O)c2sccc2-n2cccc2)c1	16	-3	4485	0	5.4	-3	-12
Cc1ccc(C)c(N2CC(=O)N(c3cc(C)ccc3C)CC2=O)c1	0	3	3795	6	-4.3	3	-15
COCC(=O)NN=Cc1c(C)[nH]n(-c2ccccc2)c1=O	10	12	x	x	5.9	0	x
COn1c(-c2ccc(Cl)cc2)nc2ccc(Cl)cc21	19	34	23040*	9	19	15	-39
COc1ccc2cc(C=NNC(=O)CN(c3ccccc3C)S(=O)(=O)c3ccccc3)c(Cl)nc2c1	3	1	x	x	5.0	-2	x
O=C(CCCOc1ccccc1)N1CCN(S(=O)(=O)c2ccc(Cl)cc2)CC1	2	4	5184	-3	2.4	5	4
COCCCNC(=O)CSc1nc2ccccc2c(=O)n1CCCC(=O)NCC1CCCO1 (stereo not given)	x	x	22765*	8	x	x	-22
CC(C)(C)c1ccc(C(=O)Nc2ccc(S(=O)(=O)Nc3cnc4ccccc4n3)cc2)cc1	4	1	4117	7	11	8	-16
c1ccc(-c2c(-c3ccccc3)n(Cc3ccco3)c3ncnc(NCCCn4ccnc4)c23)cc1	19	27	2893	-7	18	30	6

Additional compounds.
SMILES	Mtb hypoxia inh	Mtb hypoxia inh growth	Autofluor counter	BJeLR viability	Sa RN4220 lethal	ugtP null kill	PrP 5UTR inh
Cc1cc(C)cc(NC(=O)CCc2c(C)nn(-c3ccc(N4CCCCC4)nn3)c2C)c1	5	1	4454	-2	-1.9	7	-38
CCOc1ccc(Nc2cc(=O)oc3ccccc23)cc1	5	-2	5721	4	5.8	13	8
Nc1cc(N)nc(SCC(=O)N2CCN(S(=O)(=O)c3ccccc3)CC2)n1	1	0	4132	2	1.0	-3	-24
COc1cc(O)c(C(CC(=O)N2CCCCC2)c2ccc3c(c2)OCO3)c(OC)c1 (stereo not given)	1	10	3950	4	-1.1	-5	-9
CC=CC=CC(=O)N1CC2(CC(c3cccc(NC(=O)C(C)=CC)c3)=NO2)CC1C(N)=O (stereo not given)	8	8	x	x	7.6	-13	x
CCN(CC(=O)NCc1cccs1)S(=O)(=O)c1ccc(C(C)C)cc1	9	10	2921	-3	4.8	7	-10
C=CCCC(Cc1ccc(F)cc1)C(=O)OCC(Cc1ccccc1)NC(=O)C(CC=C)CC(=O)NC(CO)Cc1ccccc1 (stereo not given)	x	x	x	x	6.0	12	x
COc1ccc(-c2nnn(-c3cc(Cl)cc(Cl)c3)c2N)cc1	1	-1	4136	14	4.7	0	-26
CN(CC(=O)Nc1ccccc1C(F)(F)F)C(=O)CCc1nc2sc3c(c2c(=O)[nH]1)CCCC3	8	3	4926	-1	6.6	11	-8
CNC(=O)c1ccc(NC(=O)CC23CC4CC(CC(C4)C2)C3)cc1	-1	-3	2968	-10	4.7	2	-6
CCC(C(=O)NC1CCCCC1)N(CC1CCCO1)C(=O)CNS(=O)(=O)c1ccc(OC)cc1 (stereo not given)	x	x	2603	-6	-1.6	-2	-16
COc1ccc(CCC(=O)Nc2cc(Cl)ccc2OC)cc1	5	-1	10700	-2	5.6	-1	-49
CNC(=O)NC(=O)COC(=O)CCCOc1ccc(OC)cc1	13	0	4515	7	2.8	4	-21
COC(=O)c1sccc1NC(=S)N1CC(C)CC(C)C1 (stereo not given)	7	-1	9460	9	8.2	26	-11
CCOC(=O)c1ccc(N=c2sc(C(=O)OC)cc(=O)n2Cc2ccc3c(c2)OCO3)cc1	-3	7	5812	-13	-4.0	-19	-1
CCOc1ccc(NC(=O)COC(=O)c2cc([N+](=O)[O-])ccc2N2CCOCC2)cc1	-3	9	5791	0	-1.5	8	-10
CCc1cccc(C)c1NC(=O)CC(C)(C)CC(=O)O	0	4	4243	-3	4.6	3	1
CCOC(=O)C1CCCN(C(=O)c2cc3c(C)nc4ccccc4c3o2)C1 (stereo not given)	4	16	22194*	-21	1.6	-4	-28
CCOc1ccc(N(CC)C(=O)CCS(=O)(=O)c2cccc3nonc23)cc1	5	14	5482	-9	3.7	4	-13
CC(C(=O)Nc1ccccc1)C(=O)Nc1ccccc1	-15	7	3995	2	2.1	0	-26

(listing goes on)
SMILES	Mtb hypoxia inh	Mtb hypoxia inh growth	Autofluor counter	BJeLR viability	Sa RN4220 lethal	ugtP null kill	PrP 5UTR inh
COc1ccc(NC(=O)COC(=O)CNC(=O)c2cc(OC)c(OC)c(OC)c2)cc1	9	7	2295	1	1.7	2	-29
Cc1ccnc(N2C(=O)c3ccccc3C2O)c1 (stereo not given)	-3	11	4393	29	15	2	-51
Cc1c(CN(C)C(=O)c2nn(C)cc2[N+](=O)[O-])cnn1C	3	9	1986	-24	2.7	-1	-3
CCc1nnc(N/N=C/c2c(F)cccc2Cl)n1N	x	x	4082	-3	x	x	-24
CCOC(=O)C1(CC)NC(c2ccco2)C2C(=O)N(C)C(=O)C21 (stereo not given)	5	4	4334	-8	3.3	2	-8
O=C(C[n+]1cccc(Br)c1)c1cccs1	-8	7	2788	7	2.0	1	-10
Cc1cc(C)c2c(-n3cccc3)nn(C)c2n1	x	x	5859	2	2.0	2	-1
COC(=O)c1c(-c2c(Cl)cccc2Cl)noc1C(=O)NN	-9	4	5496	-3	8.1	-7	-14
CCN(CC)S(=O)(=O)c1ccc(N2CCCC2)c(C(=O)OCC(=O)/C(C#N)=C(\C)N)c1	12	5	3927	-18	4.2	-3	7
COc1ccc(CCN2CNc3c(c(=O)n(C)c(=O)n3C)C2)cc1OC	x	x	3970	9	0.0	4	-6
O=C(/C=C/c1ccccc1)NCCc1nc2ccccc2[nH]1	0	0	4178	-10	2.0	-1	-32
Cn1c(N)c(C(=O)COC(=O)CNC(=O)c2ccccc2Cl)c(=O)n(C)c1=O	1	10	5645	x	4.5	2	-11
CCCCn1c(N)c(N(CC)C(=O)c2cc3c(s2)CCCCC3)c(=O)[nH]c1=O	-2	-4	5295	-19	-3.7	-1	-27
Cc1occc1C(=O)NNC(=O)c1ccccc1[N+](=O)[O-]	1	0	4551	-2	0.3	-6	-1
CC1=Nn2c(nnc2-c2ccco2)SC1	-4	13	22078*	2	-0.8	-2	3
CC12CCC(C(=O)Nc3ccncc3)(CC1O)C2(C)C (stereo not given)	8	-1	4768	3	3.5	12	5
O=C(COc1ccc(-c2nnco2)cc1)N1CCN(S(=O)(=O)c2ccc3ccccc3c2)CC1	0	7	4506	7	5.9	-7	-5
O=C(CNS(=O)(=O)c1ccc(Br)cc1)NCc1cccnc1	4	3	4891	-10	2.8	-1	-16
COc1nc(C)ccc1-c1noc(-c2ccco2)n1	8	6	20448*	7	6.1	5	-31
Cc1nc2ccccc2c(=O)n1N=Cc1ccc(F)cc1	4	-1	x	x	0.1	1	x

Next structures follow.
SMILES	Mtb hypoxia inh	Mtb hypoxia inh growth	Autofluor counter	BJeLR viability	Sa RN4220 lethal	ugtP null kill	PrP 5UTR inh
O=C(CCc1nc2ccccc2c(=O)[nH]1)Nc1nnc(SCc2ccccc2F)s1	-2	-7	4155	x	7.3	0	-29
CC(=O)Nc1ccc(S(=O)(=O)N2CCSC2C(=O)O)cc1 (stereo not given)	16	10	10063	-7	5.3	3	-30
CCC(=O)N(C1=C(NC(C)C)C(=O)c2ccccc2C1=O)C(C)C	20	15	2104	-1	30	8	-21
Cc1cccn2c(=O)c(C=Nc3ccccc3)c(NCc3ccco3)nc12	13	13	9661	7	11	-5	-17
CCCOc1cccc(C(=O)Nc2ccc3c(c2)OCCO3)c1	4	3	3622	-10	2.1	4	-35
O=c1[nH]c(=O)n(CCC2=CCCCC2)c(O)c1C=NC1CCN(Cc2ccccc2)CC1	x	x	4854	x	2.0	-8	-13
CC(C)COC(=O)c1cc(=O)[nH]c2ccccc12	-10	0	3219	-1	0.7	-7	8

Two entries from above, reformatted:
> c1ccc(-c2c(-c3ccccc3)n(Cc3ccco3)c3ncnc(NCCCn4ccnc4)c23)cc1
  Mtb hypoxia inh: 19
  Mtb hypoxia inh growth: 27
  Autofluor counter: 2893
  BJeLR viability: -7
  Sa RN4220 lethal: 18
  ugtP null kill: 30
  PrP 5UTR inh: 6
> Cc1nc2ccccc2c(=O)n1N=Cc1ccc(F)cc1
  Mtb hypoxia inh: 4
  Mtb hypoxia inh growth: -1
  Autofluor counter: x
  BJeLR viability: x
  Sa RN4220 lethal: 0.1
  ugtP null kill: 1
  PrP 5UTR inh: x

Screening data as filed in PubChem BioAssay.
